T cruzi inh: T. cruzi replication inhibition; T. cruzi beta-gal in NIH3T3, luminescence, 90 h; inhibition, % (no concentration beside the values); 300,000 compounds, 1.4% hits;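 active = mean inhibition across valid replicates above about 55%, limit read from the data; inconclusive = mean below that limit but half or more replicates reach it; inactive = mean below it, under half of replicates reach it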;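 note: signal also drops with host cell toxicity which is not excluded here; 0% = plate median of DMSO wells and 100% = zero luminescence signal; higher percent means less beta-gal luminescence so fewer parasites; stock transfer was 50 nL into about 50 µL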
MLL AF4-AF9 inh: blocks AF4 peptide binding to human AF9. inhibition, % at 10 µM. 350,000 compounds, 0.47% hits. AID 651704. P42568. AlphaScreen, biotin-AF4 peptide binding to FLAG-AF9;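 active = every replicate reaching a set inhibition limit, whatever the replicate mean, cut at about 25% in these data; inconclusive = mean inhibition reaches that limit but some replicates miss it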;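 note: 0% = plate neutral control median and 100% = total signal loss; the record names both 10 and 1 µM as test concentration; the first replicate is given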
Target sequence (P42568 whole entry, looked up): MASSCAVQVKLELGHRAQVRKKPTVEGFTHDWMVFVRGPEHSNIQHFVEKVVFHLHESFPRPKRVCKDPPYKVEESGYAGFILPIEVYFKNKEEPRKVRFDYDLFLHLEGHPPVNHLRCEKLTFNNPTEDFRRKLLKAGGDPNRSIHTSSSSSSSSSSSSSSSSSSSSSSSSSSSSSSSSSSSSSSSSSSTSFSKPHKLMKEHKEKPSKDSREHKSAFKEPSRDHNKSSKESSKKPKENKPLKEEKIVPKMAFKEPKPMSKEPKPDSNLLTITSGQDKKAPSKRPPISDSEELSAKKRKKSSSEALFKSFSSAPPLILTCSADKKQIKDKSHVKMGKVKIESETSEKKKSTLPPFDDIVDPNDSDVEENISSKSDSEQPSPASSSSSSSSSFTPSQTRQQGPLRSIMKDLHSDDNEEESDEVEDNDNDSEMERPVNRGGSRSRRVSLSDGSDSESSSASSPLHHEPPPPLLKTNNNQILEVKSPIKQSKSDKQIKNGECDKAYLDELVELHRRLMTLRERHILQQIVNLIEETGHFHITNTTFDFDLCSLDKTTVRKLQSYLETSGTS
RanGTP-Impb inh: inhibitors of RanGTP-importin-beta interaction, primary screen, biochemical, FRET, CFP-Ran, YFP-importin-beta, homogeneous | cell-free CFP-Ran/YFP-importin-beta FRET ratio | inhibition, % (test concentration not listed) | 300,000 compounds, 1.1% hits;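 active = most replicates above 15%; inconclusive = exactly half above 15%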;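 note: 0% = DMSO wells and 100% = Ran loaded with GDP instead of GTP; wells of about 40 µL received 100 nL stock; the first replicate is given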
Bfl-1 A1 inh: inhibitors of the anti-apoptotic protein A1, read as caspase activation. MEF A1-2A-BIM cells, Caspase-Glo 3/7 luminescence, 3 h; percent of clofoctol response, vehicle zero. caspase activation, % (no concentration beside the values). 330,000 compounds, 0.066% hits. AID 2462;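 active = over half of replicate activation scores above 10%, or exactly half above 10 with the replicate mean above 10; inconclusive = replicate mean below 10 yet half the replicates above 10; inactive = over half of replicates below 10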;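 note: wells of about 30 µL received 50 nL stock; many hits fall short of the cut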
Ecoli rRNA inh: inhibits bacterial ribosomal RNA function over humanized ribosomes; E. coli WT GFP vs humanized-ribosome RFP mutants, fluorescence, 24 h; active compounds read low; DMSO median 0, no signal -100; GFP signal change (wild-type ribosome), % (no concentration beside the values); 350,000 compounds, 1.6% hits; AID 720706;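 active = significant combined selectivity score with lowered wild-type GFP, culture density cut under 30%, mutant RFP and density less affected; inactive = any of these conditions unmet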; note: one replicate is shown; some compounds called inactive have numbers as strong as hits
Calb FLC: C. albicans growth modulation with fluconazole. C. albicans CaCi-2 (fluconazole-resistant clinical isolate) + fluconazole, Alamar Blue growth, 48 h. growth inhibition, % (test concentration not listed). 300,000 compounds, 0.57% hits. AID 1979;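 active = most replicates above 75%; inconclusive = exactly half above 75%; inactive = most below 75%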;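 note: all wells also contain fluconazole at 8 µg/ml as a sub-toxic cotreatment; 0% = median of DMSO wells and 100% = median of geldanamycin control wells; wells of about 8 µL received 7.5 nL stock; the first replicate is given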
Beta cell apopt: beta cell apoptosis inhibition | AID 435005 | protection from apoptosis, % (test concentration not listed) | 300,000 compounds, 0.8% hits | INS-1E cytokine-induced death, ATP luminescence, 48 h; percent of positive-control rescue, neutral wells zero;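 active = all replicates at 75% or more, or half of them and the mean; inconclusive = half reach 75% but not the mean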;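 note: 0% = cytokine-treated negative control wells and 100% = positive control rescue; higher means more ATP so stronger rescue from cytokine killing; wells of about 40 µL received 100 nL stock; the first replicate is given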
Vif TR-FRET: HIV-1 Vif–A3G interaction blockers – biochemical, TR-FRET, GST-Vif 1-94, biotin-A3G peptide, dose response retest, primary screen (AID 1117319); TR-FRET GST-Vif / biotin-A3G peptide binding; higher % means a stronger effect; test concentration not given here; strong numbers were not always called active; 260,000 compounds, 0.57% hits; one-dose inhibition, %; IC50 in µM for titrated hits;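 active = above the screen mean plus three standard deviations and confirmed in dose response; inconclusive = results disagree or hit not tested in dose response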;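 note: Vif residues 1-94 fused to GST binding biotinylated APOBEC3G peptide 110-148; 0% = full assay without inhibitor and 100% = GST in place of GST-Vif; retest series ran down from 100 µM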
Ecoli rRNA inh OD600: further read-out of Ecoli rRNA inh, marked with its call; OD600 change, %; measured here: OD600 growth;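 optical density of the mix in the first replicate; 0 = DMSO median and -100 = no signal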
Ecoli rRNA inh RFP: second read-out of Ecoli rRNA inh, no call of its own (marks repeat the call); RFP signal change, %; measured here: RFP humanized mutant strains;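 first replicate; 0 = DMSO median and -100 = no signal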
Active calls of the source: *; ? = inconclusive; · = no result given. A portion of the library (hit frequency here may not be typical).

Structure	Beta cell apopt	Ecoli rRNA inh	T cruzi inh	RanGTP-Impb inh	Ecoli rRNA inh OD600	Calb FLC	Vif TR-FRET	Ecoli rRNA inh RFP	MLL AF4-AF9 inh	Bfl-1 A1 inh
Cc1c(-n2c(O)c(C3=c4ccccc4=NC3=O)sc2=S)c(=O)n(-c2ccccc2)n1C	-19.2	-4.1	-18.3	3.1	5.7	18.5	4.4%	-3.8	-0.4	-1.0
COC(=O)c1ccc(CN2CCCC(C(=O)Nc3cccc(-n4cccn4)c3)C2)cc1 (stereo not given)	-3.4	-20.3	4.5	-0.3	-3.8	0.2	·	6.2	2.7	0.6
CC1CCCN(C(=S)Nc2ccc(F)cc2)C1 (stereo not given)	·	16.6	-19.0	?	13.0	7.0	-1.5%	-0.1	-2.3	-0.6
CCOc1ccccc1NC(=O)CCn1cccc1	-3.7	5.8	0.3	·	12.9	0.6	4.4%	5.1	-0.1	-0.3
O=C(COc1cccc(Cl)c1Cl)Nc1ccc2c(c1)CCC2	1.3	·	-11.2	2.6	·	-19.0	2.7%	·	·	0.0
CC(C)NC(=O)NC(=O)CSc1ccc(S(=O)(=O)N2CCCC2)cn1	-2.7	1.2	·	·	9.4	·	·	-1.8	-7.0	0.6
COc1ccc(C2C(C#N)=C(N)Oc3c2ccc2cccnc32)cc1OC (stereo not given)	99.5*	-10.9	-37.4	1.0	-6.5	92.6*	18.2%	-2.5	?	-0.3
CCOC(=O)NNc1ccc(C(F)(F)F)cn1	-4.5	·	-11.9	3.0	·	8.1	·	·	-0.3	1.1
CC1(C)Oc2ccc(C(=O)Nc3ccccc3F)cc2N(CC(=O)N2CCOCC2)C1=O	-5.4	3.2	-3.4	-1.0	3.1	0.6	·	-3.7	0.7	0.2
CCCCN1C(=O)C(NC(C)=O)c2cc(Br)ccc21 (stereo not given)	-2.7	·	14.1	1.0	·	-0.1	?	·	·	3.8
CC(=O)N1C(C(=O)O)CSC1c1cccc(C)c1 (stereo not given)	-6.1	·	-25.6	-3.4	·	-7.0	4.5%	·	·	1.5
Cc1nn(C)cc1/C=C/C(=O)c1cccs1	2.0	·	6.2	4.1	·	20.4	-14.2%	·	·	0.2
O=C(COC(=O)Cc1ccccc1F)Nc1ccc2c(c1)OCCO2	-1.6	-2.0	-13.5	2.3	-9.1	17.7	5.5%	0.6	-2.5	0.3
CCOc1ccc(CCNC(=O)C2CCC(=O)N2CCc2ccccc2)cc1OCC (stereo not given)	-10.0	·	15.2	·	·	-6.1	4.9%	·	·	1.0
CCc1cc(Cn2nc(-c3ccccc3)cc2C(=O)NCc2cccc(Br)c2)on1	5.1	-9.6	·	·	-10.1	·	·	-15.6	-3.4	1.7
O=C(NCCC(=O)N1CCCC(C(F)(F)F)C1)c1ccccc1Cl (stereo not given)	3.3	1.5	-0.9	-0.3	0.0	6.7	·	2.9	8.8	0.0
COCCOC(=O)C1=C(C)NC(=O)NC1c1ccc(OC(=O)c2ccco2)c(OC)c1 (stereo not given)	0.2	·	-3.7	2.4	·	-2.7	5.7%	·	·	0.4
Cc1ccc(-c2nc(CS(=O)(=O)CC(=O)NCCCN3CCN(C)CC3)c(C)o2)cc1	-4.2	6.6	25.3	-1.1	7.4	7.2	16.3%	-1.8	2.4	0.9
Cc1ccc(CNC(=O)CNS(=O)(=O)c2ccc3nc(C)sc3c2)cc1	-3.5	-5.7	-7.5	2.5	-7.9	63.0	-2.5%	-15.5	1.9	-0.5
O=C(Nc1ccc(S(=O)(=O)N2CCCC2)cc1)c1cc(=O)c2ccccc2o1	-1.0	12.1	-4.8	-4.4	3.1	-0.1	-4.6%	0.9	-8.6	0.2
CCOC(=O)C(=CNc1cc(C)nn1-c1ccccc1)C(=O)OCC	8.3	-3.2	1.4	0.1	-1.6	39.2	-4.6%	1.6	·	-0.6
CCn1c(COc2ccc(=O)n(-c3ccccc3)n2)nnc1SC	-3.0	9.1	-14.5	-3.4	7.7	-29.3	?	-3.8	-2.2	0.8
O=C(c1ccc(CS(=O)Cc2ccc(Cl)cc2)o1)N1CCN(c2ccccn2)CC1 (stereo not given)	8.5	-8.7	14.3	-2.9	-32.0	-3.4	·	-5.8	5.7	-0.2
CCOCCCNC(=S)Nc1ccc2nc(N3CCN(CC)CC3)cc(C)c2c1	-1.6	5.8	-13.0	2.9	7.2	-21.5	44.6%	-0.9	4.0	-0.2
Cn1nc(C(F)(F)F)cc1-c1ccc(/C=C(\C#N)C(=O)c2ccccc2)s1	-1.2	6.2	-4.0	0.8	5.7	-12.6	-11.7%	2.1	-5.1	-0.7
O=C(Nc1ccc(Oc2cccnc2)cc1)C1CCN(Cc2ccc(F)cc2)CC1	-3.5	4.4	2.0	0.2	12.8	-13.5	·	0.9	2.9	0.7
Cc1ccc(/C=C/C(=O)N2CC(=O)Nc3ccccc32)o1	-6.3	14.1	-3.0	?	3.3	6.7	14.6%	4.7	-6.1	-1.2
Cc1ccsc1C(=O)Nc1ccc(F)c([N+](=O)[O-])c1	·	7.9	-8.5	2.1	15.4	9.7	·	4.7	5.2	-8.2
Cc1cc(N2CCC(C)CC2)nc(-n2nc(C)cc2C)n1	63.7	·	26.8	-1.3	·	?	-11.4%	·	·	0.7
Nc1cc(-c2ccccc2)nn1Cc1ccccc1	-0.2	-5.6	33.7	31.6*	-7.5	-22.9	·	-4.2	2.6	0.5
CN(C)S(=O)(=O)c1ccc(C(=O)NCc2nnc(SCC(=O)N3CCCC3)o2)cc1	-6.9	5.1	1.5	-0.2	7.8	-1.0	-13.4%	-1.8	-6.3	-1.1
CCOC(=O)Cc1csc(NC(=O)c2c(-c3c(Cl)cccc3Cl)noc2C)n1	3.0	·	-0.8	1.3	·	-0.6	-5.9%	·	·	1.9
O=C(Nc1cccc(S(=O)(=O)N2CCOCC2)c1)c1ccccc1[N+](=O)[O-]	3.2	·	·	·	·	·	3.5%	·	5.7	1.2
O=C(N/N=C\c1ccc(COc2ccc([N+](=O)[O-])cc2)o1)c1ccc(Cl)cc1	-6.2	·	-4.7	6.4	·	23.1	?	·	·	0.2
O=C(O)c1cc(-c2c[nH]c3ccccc23)nc2cc3ccccc3cc12	5.7	0.4	2.4	-1.7	-2.3	2.4	0.3%	-1.5	-2.4	-0.3
CC(C)CNC(=O)C1CCCN(C(=O)NCc2ccccc2)C1 (stereo not given)	0.9	4.7	7.8	-0.8	8.3	8.9	·	-1.7	1.2	0.4
CC1(C)Cc2cccc(OCC(=O)NCc3ccccc3F)c2O1	6.8	-4.4	·	·	-5.7	·	2.5%	2.1	-3.0	0.7
CCN(CC)CCCNc1nc2cc(OC)c(OC)cc2c2nc(-c3cccnc3)nn12	12.4	·	51.6	-4.0	·	-15.4	-8.7%	·	·	0.2
O=c1c2ccccc2sn1-c1ccccc1	25.6	·	64.9*	3.0	·	-0.9	?	·	·	-7.8
O=C(COc1cccc(-n2cnnn2)c1)Nc1ccccc1	-3.2	-9.6	5.7	-1.4	4.6	-3.0	12.9%	-1.4	0.5	0.5
COC(=O)c1ccc(CN2CCC(CO)(Cc3cccc(OC)c3)CC2)cc1	-14.9	3.2	40.5	?	2.1	7.2	-5.2%	-0.6	-3.0	0.3
CC(=O)c1c(C)[nH]c(C(=O)O)c1C	-2.5	-0.2	-0.1	0.6	-4.1	19.5	4.1%	-2.9	1.3	1.9
CCOC(=O)c1cn(CC(=O)Nc2ccc(C)cc2)nn1	-4.0	13.9	-21.9	-1.0	27.5	-2.2	-0.9%	5.5	·	0.1
S=C1CSc2ccccc2N1	-3.8	6.3	-8.1	1.9	-5.6	-28.6	-3.3%	-0.3	0.0	-0.1
CN(c1ccc([N+](=O)[O-])cc1C(N)=O)C1CCCCC1	-19.4	6.6	-4.2	1.2	7.5	2.3	-1.9%	-0.9	0.8	1.8

Ordered by number of heavy atoms (low to high): 11 of the compounds above.
Structure	Beta cell apopt	Ecoli rRNA inh	T cruzi inh	RanGTP-Impb inh	Ecoli rRNA inh OD600	Calb FLC	Vif TR-FRET	Ecoli rRNA inh RFP	MLL AF4-AF9 inh	Bfl-1 A1 inh
CCOC(=O)NNc1ccc(C(F)(F)F)cn1	-4.5	·	-11.9	3.0	·	8.1	·	·	-0.3	1.1
Cc1ccsc1C(=O)Nc1ccc(F)c([N+](=O)[O-])c1	·	7.9	-8.5	2.1	15.4	9.7	·	4.7	5.2	-8.2
CN(c1ccc([N+](=O)[O-])cc1C(N)=O)C1CCCCC1	-19.4	6.6	-4.2	1.2	7.5	2.3	-1.9%	-0.9	0.8	1.8
O=C(COc1cccc(Cl)c1Cl)Nc1ccc2c(c1)CCC2	1.3	·	-11.2	2.6	·	-19.0	2.7%	·	·	0.0
CC(C)CNC(=O)C1CCCN(C(=O)NCc2ccccc2)C1 (stereo not given)	0.9	4.7	7.8	-0.8	8.3	8.9	·	-1.7	1.2	0.4
CCn1c(COc2ccc(=O)n(-c3ccccc3)n2)nnc1SC	-3.0	9.1	-14.5	-3.4	7.7	-29.3	?	-3.8	-2.2	0.8
O=C(COC(=O)Cc1ccccc1F)Nc1ccc2c(c1)OCCO2	-1.6	-2.0	-13.5	2.3	-9.1	17.7	5.5%	0.6	-2.5	0.3
Cn1nc(C(F)(F)F)cc1-c1ccc(/C=C(\C#N)C(=O)c2ccccc2)s1	-1.2	6.2	-4.0	0.8	5.7	-12.6	-11.7%	2.1	-5.1	-0.7
CCOC(=O)Cc1csc(NC(=O)c2c(-c3c(Cl)cccc3Cl)noc2C)n1	3.0	·	-0.8	1.3	·	-0.6	-5.9%	·	·	1.9
CCOCCCNC(=S)Nc1ccc2nc(N3CCN(CC)CC3)cc(C)c2c1	-1.6	5.8	-13.0	2.9	7.2	-21.5	44.6%	-0.9	4.0	-0.2
CC1(C)Oc2ccc(C(=O)Nc3ccccc3F)cc2N(CC(=O)N2CCOCC2)C1=O	-5.4	3.2	-3.4	-1.0	3.1	0.6	·	-3.7	0.7	0.2

Screening data as filed in PubChem.
